ALR H2O2 inh – human ALR oxidase inhibition via reduced H2O2; purified ALR, DTT oxidation, H2O2 HRP-luminol luminescence; inhibition, % (test concentration not listed); 290,000 compounds, 3.8% hits; AID 485317;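 active means mean and each replicate at 75% or more; inconclusive means only one of the two met; inactive means neither met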;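 further: stock transfer was 7.5 nL into about 7.5 µL; 0% = neutral wells and 100% = wells with inactivated enzyme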
Target sequence (P55789 whole entry, looked up): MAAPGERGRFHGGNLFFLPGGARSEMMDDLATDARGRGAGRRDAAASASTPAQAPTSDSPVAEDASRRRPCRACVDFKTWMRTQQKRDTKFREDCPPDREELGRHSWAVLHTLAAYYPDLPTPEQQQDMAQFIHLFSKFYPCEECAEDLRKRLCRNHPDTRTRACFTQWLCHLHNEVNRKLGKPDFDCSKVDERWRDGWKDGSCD
FGF22 binding – shifts melting point of recombinant human FGF22. Q9HCT0. recombinant FGF22 thermal shift, SYPRO orange fluorescence; percent of sucrose octasulfate shift, DMSO zero. calls only at 9.99 µM. 340,000 compounds, 1.5% hits;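 active means melting point raised past a set limit in the mean and every replicate; inconclusive means no clear call; three in four hits are not shown here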
Target sequence (Q9HCT0 whole entry, looked up): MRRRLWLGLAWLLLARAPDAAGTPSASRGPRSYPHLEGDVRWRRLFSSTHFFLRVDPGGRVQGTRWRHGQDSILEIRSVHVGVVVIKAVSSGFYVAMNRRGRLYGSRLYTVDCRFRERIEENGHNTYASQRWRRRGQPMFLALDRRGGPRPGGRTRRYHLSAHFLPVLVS
HNF4A DNA FP – change in binding of human HNF4 alpha to DNA; HNF4a-FITC DNA binding, fluorescence polarization, 1 h; 360,000 compounds, 0.3% hits; activity change, % at 10 µM; P41235; in the data active means activity change above about 30%, passing the limit was not always enough;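 further: controls were the assay level and a saturating level of protein; the project sought stronger binding though the title names inhibitors; some compounds called inactive have numbers as strong as hits; positive values seem to mean higher polarization but the record does not say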
MLL AF4-AF9 inh – MLL-AF4/AF9 protein interaction inhibition; P42568; AlphaScreen, biotin-AF4 peptide binding to FLAG-AF9; inhibition, % at 10 µM; 350,000 compounds, 0.47% hits;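 active means every replicate reaching a set inhibition limit, whatever the replicate mean, cut at about 25% in these data; inconclusive means mean inhibition reaches that limit but some replicates miss it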;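 further: 0% = plate neutral control median and 100% = total signal loss; the record names both 10 and 1 µM as test concentration; the first replicate is given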
Target sequence (P42568 whole entry, looked up): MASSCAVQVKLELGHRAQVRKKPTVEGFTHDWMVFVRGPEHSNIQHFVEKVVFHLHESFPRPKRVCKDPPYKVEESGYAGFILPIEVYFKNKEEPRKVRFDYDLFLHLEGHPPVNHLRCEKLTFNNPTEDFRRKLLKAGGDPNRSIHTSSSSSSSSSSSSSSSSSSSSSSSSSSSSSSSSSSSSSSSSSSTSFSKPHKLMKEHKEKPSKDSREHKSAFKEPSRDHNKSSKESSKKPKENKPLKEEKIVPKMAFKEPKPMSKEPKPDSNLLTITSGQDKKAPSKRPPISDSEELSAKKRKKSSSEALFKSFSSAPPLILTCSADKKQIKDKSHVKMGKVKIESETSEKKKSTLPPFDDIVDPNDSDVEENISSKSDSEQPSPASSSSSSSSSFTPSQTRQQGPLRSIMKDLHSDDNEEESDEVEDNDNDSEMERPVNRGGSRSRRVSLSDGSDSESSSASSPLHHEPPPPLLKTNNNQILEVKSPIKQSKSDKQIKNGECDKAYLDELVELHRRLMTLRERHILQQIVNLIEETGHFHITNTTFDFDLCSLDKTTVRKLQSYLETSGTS
Vif A3G – inhibitors of Vif binding to APOBEC3G peptide, primary screen, biochemical, TR-FRET, GST-Vif 1-94, biotin-A3G peptide, dose response retest (AID 1117319); TR-FRET GST-Vif / biotin-A3G peptide binding; higher % means a stronger effect; test concentration not given here; strong numbers were not always called active; inhibition, %; hits with a dose series show IC50 in µM; 260,000 compounds, 0.57% hits;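 active means above the screen mean plus three standard deviations and confirmed in dose response; inconclusive means results disagree or hit not tested in dose response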;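 further: Vif residues 1-94 fused to GST binding biotinylated APOBEC3G peptide 110-148; 0% = full assay without inhibitor and 100% = GST in place of GST-Vif; retest series ran down from 100 µM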
Ecoli growth – blocks Escherichia coli growth | OD600, 23 h; hits give low values | OD600 absorbance (concentration not given with the values) | 330,000 compounds, 0.21% hits | AID 1053175;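 active means OD600 absorbance below the run mean of sample wells minus 3.6 SD, in any replicate, cut at about 0.56 in these data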;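 further: stock transfer was 300 nL into about 60 µL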
Ecoli rRNA inh – selective bacterial rRNA inhibition in E. coli; E. coli WT GFP vs humanized-ribosome RFP mutants, fluorescence, 24 h; hits give low values; DMSO median 0, no signal -100; GFP signal change (wild-type ribosome), % (concentration not given with the values); 350,000 compounds, 1.6% hits; AID 720706;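 active means significant combined selectivity score with lowered wild-type GFP, culture density cut under 30%, mutant RFP and density less affected; inactive means any of these conditions unmet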; further: one replicate is shown; some compounds called inactive have numbers as strong as hits
Ecoli rRNA inh OD600 – recorded beside Ecoli rRNA inh, whose call it bears; OD600 change, %; measured here: OD600 growth;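 optical density of the mix in the first replicate; 0 = DMSO median and -100 = no signal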
Ecoli rRNA inh RFP – also measured in Ecoli rRNA inh; calls as there; RFP signal change, %; measured here: RFP humanized mutant strains;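 first replicate; 0 = DMSO median and -100 = no signal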
The depositor's hits bear a star; i = inactive; ? = inconclusive; . = not tested or not shown; & = joins results of further samples. These rows are one share of the data; the hit share may differ from the screen's.

Values run as follows: ALR H2O2 inh	FGF22 binding	HNF4A DNA FP	MLL AF4-AF9 inh	Vif A3G	Ecoli growth	Ecoli rRNA inh	Ecoli rRNA inh OD600	Ecoli rRNA inh RFP
Cn1nc(C(C)(C)C)cc1NC(=O)C1(C)CCN1C(=O)CCc1ccccc1 (stereo not drawn)
  .	i	-2.2	-3.8	.	.	5	9	1.2
CCCOc1ccc(-c2nc(C#N)c(N3CCc4ccccc4C3)o2)cc1
  0	.	-2.3	.	3%	0.76	.	.	.
CC(=O)OCC(OC(C)=O)C(OC(C)=O)C(OC(C)=O)C(=O)Nc1ccccc1C (stereo not drawn)
  -14	.	1.9	.	12%	0.62	.	.	.
CC(=O)Nc1ccccc1C(=O)N1CCc2ccccc21
  -7	.	-0.1	.	-2%	0.71	.	.	.
O=C1[C@H]2[C@@H](c3ccc(Cl)cc3)N3C(=O)N(c4cccc(Br)c4)C(=O)[C@@]3(Cc3ccc(Cl)cc3)[C@H]2C(=O)N1C1CCCCC1
  35	i	1.3	-0.7	.	.	16	5	-6.2
COc1ccc(OC)c(S(=O)(=O)N2CCN(C(=O)c3ccco3)CC2)c1
  -30	i	0.8	-5.2	.	0.66	0	-1	2.5
CCOC(=O)N=Nc1c(O)n(CC)c2ccccc12
  .	.	-1.8	.	-10%	0.69	.	.	.
COc1ccc(NC(=O)Nc2ccc3c(c2)C(=O)N([C@@H](C)CO)C[C@@H](C)[C@@H](CN(C)CC2CCCCC2)O3)cc1
  -3	i	6.4	13&7.5	.	0.75	-1&-6	-3&-6	0.3&-0.9
c1ccc2c(c1)nc(CN1CCOCC1)n1c3ccccc3nc21
  -4	.	-1.8	.	-4%	0.72	.	.	.
O=C(NC1CCCC1)c1cc(-c2cccc(Cl)c2)on1
  .	i	1.9	-0.3	4%	0.66	-57	-79	-18
COc1cccc(N(CC(=O)NC2CCCC2)C(=O)CCC(=O)Nc2cc(C)on2)c1
  .	i	-3.1	-1.0	-11%	0.71	1	8	-0.7
COC(=O)c1ccc2nc(NC(=O)CN3C(=O)CCC3=O)sc2c1
  3	.	-2.0	.	9%	0.77	.	.	.
O=C(C1CCOCC1)N1CCCC(N2CCN(c3ccc(F)cc3)CC2)C1 (stereo not drawn)
  94*	i	-3.4	0.1	-2%	0.67	3	4	-1.8
Cc1ccc([C@H]2N[C@]3(CCCN(Cc4ccco4)C3=O)[C@H]3C(=O)N(C)C(=O)[C@@H]23)cc1
  .	i	6.3	-0.3	-4%	.	.	.	.
CCN(CC)c1ccc(C(=O)NNC(=O)CN2C(=O)NC(C)(c3ccccc3)C2=O)cc1 (stereo not drawn)
  33	i	-1.6	-1.9	7%	0.67	-4	-2	-1.1
COc1ccc(-c2cc3nc(NCc4ccc(NC(C)=O)cc4)n(C)c(=O)c3s2)cc1OC
  .	i	2.3	0.4	.	.	8	9	-3.0
C[C@H]1CN([C@@H](C)CO)C(=O)Cc2cc(NS(=O)(=O)c3ccc(Cl)cc3)ccc2O[C@H]1CN(C)S(C)(=O)=O
  .	i	.	-1.0	.	.	2	-5	-2.0
O=C(NCC[C@@H]1CC[C@H](NS(=O)(=O)c2cccc(F)c2)[C@H](CO)O1)C1CCC1
  .	i	.	-6.8	.	.	0	5	-1.9
CC(C)N(Cc1ccccc1)C(=O)CN1C(=O)COc2ccc(S(=O)(=O)N3CCCCCC3)cc21
  -7	i	2.1	-1.3	1%	0.68	4	8	-0.7
O=C(O)CSC1=NC(=Nc2cccc(Cl)c2)C2(CCCCC2)N1c1ccccc1
  51	.	-3.1	.	.	0.64	.	.	.
CCCNC(=O)CSc1ccc(S(=O)(=O)N2CCCCC2)cn1
  .	i	0.1	0.9	1%	0.69	4	9	-2.8
O=C(NCc1cccs1)c1ccc([N+](=O)[O-])cc1Cl
  -14	.	-0.7	.	?	0.66	.	.	.
Cc1cc(C)c(OCC(=O)Nc2nc(-c3ccccn3)cs2)c(C)c1
  -9	i	-2.6	0.2	10%	0.7	-48	-76	-7.4
Cc1cc2ccccn2c1C(=O)c1ccc([N+](=O)[O-])cc1[N+](=O)[O-]
  -22	i	1.5	0.2	7%	0.67	13	5	3.0
Cc1ccc(N(C(=O)c2nsc(Cl)c2Cl)C(C(=O)NC2CCCC2)c2ccc(O)cc2)cc1C (stereo not drawn)
  -1	i	2.1	-10	-4%	0.66	-5	-1	-4.9
CCCn1nc(NS(=O)(=O)c2ccc(F)cc2)c2cc3ccccc3nc21
  14	i	1.3	-2.7	.	0.69	3	3	1.9
COc1ccccc1N1CCN(C(C)C(=O)Nc2ccc(S(=O)(=O)N3CCOCC3)cc2)CC1 (stereo not drawn)
  24	i	1.4	4.0	-6%	0.7	-9	-5	-2.0
CCCCc1ccc(S(=O)(=O)Nc2ccc(C)c(NS(C)(=O)=O)c2)cc1
  -10	i	4.8	-2.8	.	0.67	-35*	-13*	2.9*
Cc1c(C)n2c(SCC(=O)N3CCN(c4ccccc4)CC3)nnc2[nH]c1=O
  19	i	-1.5	0.3	0%	0.72	0	1	-0.8
COc1cc(OC)cc(-c2c(-c3cccs3)c3cc(-c4ccc(OC)c(F)c4)ccc3n2C)c1
  1	i	3.4	0.5	.	0.86	-1	1	1.1

By substructure, the entries above containing a furan ring, fused or not
Values run as follows: ALR H2O2 inh	FGF22 binding	HNF4A DNA FP	MLL AF4-AF9 inh	Vif A3G	Ecoli growth	Ecoli rRNA inh	Ecoli rRNA inh OD600	Ecoli rRNA inh RFP
COc1ccc(OC)c(S(=O)(=O)N2CCN(C(=O)c3ccco3)CC2)c1
  -30	i	0.8	-5.2	.	0.66	0	-1	2.5
Cc1ccc([C@H]2N[C@]3(CCCN(Cc4ccco4)C3=O)[C@H]3C(=O)N(C)C(=O)[C@@H]23)cc1
  .	i	6.3	-0.3	-4%	.	.	.	.

The listing picks up, starting 3 compounds before the break.
Values run as follows: ALR H2O2 inh	FGF22 binding	HNF4A DNA FP	MLL AF4-AF9 inh	Vif A3G	Ecoli growth	Ecoli rRNA inh	Ecoli rRNA inh OD600	Ecoli rRNA inh RFP
CCCCc1ccc(S(=O)(=O)Nc2ccc(C)c(NS(C)(=O)=O)c2)cc1
  -10	i	4.8	-2.8	.	0.67	-35*	-13*	2.9*
Cc1c(C)n2c(SCC(=O)N3CCN(c4ccccc4)CC3)nnc2[nH]c1=O
  19	i	-1.5	0.3	0%	0.72	0	1	-0.8
COc1cc(OC)cc(-c2c(-c3cccs3)c3cc(-c4ccc(OC)c(F)c4)ccc3n2C)c1
  1	i	3.4	0.5	.	0.86	-1	1	1.1
O=C(CN1C(=O)NC2(CCc3ccccc3C2)C1=O)Nc1ccc(F)cc1 (stereo not drawn)
  34	.	2.8	.	10%	0.7	.	.	.
Cc1cc(NC(=O)CSCC(=O)Nc2cc(C(F)(F)F)ccc2N2CCOCC2)no1
  .	i	4.1	-0.5	-6%	0.72	.	.	.
CCOC(=O)C1=C(N)Oc2cc(C)n(C)c(=O)c2C1c1ccncc1 (stereo not drawn)
  -3	.	-3.5	.	-6%	0.67	.	.	.
COC(=O)c1ccncc1C(=O)Nc1ccc(OC)cc1
  -14	.	-2.7	.	-2%	0.69	.	.	.
Cc1nc(SCC(=O)NCCc2ccccc2)n[nH]1
  -13	.	3.0	.	-2%	0.72	.	.	.
CCN(CC)c1ccc(NC(=O)/C=C/c2cc(Br)ccc2OC)cc1
  -6	.	0.9	.	6%	0.78	.	.	.
Cc1ccc(-n2c(=O)c3cc4c(=O)n(-c5ccc(C)c(C)c5)c(=O)c4c(C(=O)c4ccc(C(=O)O)cc4)c3c2=O)cc1C
  -2	i	-58	7.9	10%	0.65	8	9	2.9
Cc1c(OCc2ccccc2)cccc1OCc1ccccc1
  -5	i	-3.2	-2.7	10%	0.69	1	6	-3.3
Cc1sc2ncnc(NC(C)C(=O)O)c2c1C (stereo not drawn)
  -3	i	2.3	-22	3%	0.68	5	-5	-3.5
CCN(CC)CCN(C(=O)c1ccc([N+](=O)[O-])cc1)c1nc2c(OC)cccc2s1
  -6	i	0.6	-3.9	9%	0.68	6	13	3.5
Cn1c(SCC(=O)N/N=C/C=C\c2ccco2)nc2ccccc21
  86*	.	-8.5	.	?	.	.	.	.
CN1NC(c2ccccc2)NN(C)C1=O
  .	i	1.7	-2.2	.	.	3	11	-1.2
O=C(Cn1nc(Cl)nc1Cl)Nc1ccccc1
  1	.	3.0	.	-2%	0.77	.	.	.
COCCCNC(=O)CC1C[C@H](C(=O)N2CCOCC2)[C@@]2(C)c3[nH]c4ccccc4c3CCN2C1=O (stereo partly drawn)
  .	i	4.4	-1.1	-6%	0.69	22	14	6.7
COc1ccc2oc(=O)c(C(=O)OCc3ccccc3)cc2c1
  -2	i	-4.5	-1.4	-10%	0.71	8	0	0.0
O=C(NCCN1CCOCC1)c1ccc(CS(=O)(=O)c2c(Cl)cccc2Cl)o1
  1	i	2.1	-2.3	5%	0.74	5	21	1.5
Cc1nn(-c2ncc(C(F)(F)F)cc2Cl)c(=O)n1-c1ccccc1
  1	.	0.3	.	-5%	0.67	.	.	.
Cc1cccc(COCC(Cc2ccccc2)N2CCN(C(=O)c3cccc(C)c3)CCC2=O)c1 (stereo not drawn)
  .	i	-6.9	3.5	1%	0.65	-25	-33	19
C[C@@H]1CN([C@H](C)CO)C(=O)c2cc(C#CC3CCCC3)cnc2O[C@@H]1CN(C)C(=O)c1ccncc1
  .	i	.	-1.1	.	.	1	5	0.1
C[C@H](NC(=O)C[C@@H]1CC[C@H](NC(=O)c2cccnc2)[C@H](CO)O1)c1ccccc1
  .	i	.	-1.4	.	.	2	-4	0.7
O=C(C[C@H]1C=C[C@H](NC(=O)CC2CC2)[C@H](CO)O1)NCc1ccc(Cl)cc1
  .	i	.	-6.9	.	.	1	2	-1.9
COc1cccc(OC)c1C(=O)NC(=S)Nc1cccc(NC(=O)c2ccco2)c1
  -13	i	-1.6	-0.4	-5%	0.69	14	13	0.5

Results in Ecoli rRNA inh OD600, Ecoli growth and Ecoli rRNA inh, for 4 of the compounds above:
Molecule	Ecoli rRNA inh OD600	Ecoli growth	Ecoli rRNA inh
CCOC(=O)C1=C(N)Oc2cc(C)n(C)c(=O)c2C1c1ccncc1 (stereo not drawn)	.	0.67	.
COC(=O)c1ccncc1C(=O)Nc1ccc(OC)cc1	.	0.69	.
Cc1nc(SCC(=O)NCCc2ccccc2)n[nH]1	.	0.72	.
CCN(CC)c1ccc(NC(=O)/C=C/c2cc(Br)ccc2OC)cc1	.	0.78	.
